# Screening data from PubChem.
# ClpP mod: qHTS Assay for Activators of ClpP; 1.9% of 340,000 active; ATP-dependent Clp protease proteolytic subunit (Bacillus subtilis (strain 168)), P80244; purified B. subtilis ClpP, FRET peptide cleavage, 20 min; Potency, µM (highest dose often 57.5 µM), for inactives: at the highest dose activity change, negative = active; active = well fitted falling curve with a large enough effect; inconclusive = small, poorly fitted or top-dose-only effect; inactive = no such curve, though single readings can be large or run the other way; further: potency means the concentration at half of the fitted maximal effect; the source files actives as falling curves though it sought activators and does not explain the sign; nearly all actives have a fitted effect of over 65% in size; many hits overshoot -100%
# Target sequence (P80244 whole entry, looked up): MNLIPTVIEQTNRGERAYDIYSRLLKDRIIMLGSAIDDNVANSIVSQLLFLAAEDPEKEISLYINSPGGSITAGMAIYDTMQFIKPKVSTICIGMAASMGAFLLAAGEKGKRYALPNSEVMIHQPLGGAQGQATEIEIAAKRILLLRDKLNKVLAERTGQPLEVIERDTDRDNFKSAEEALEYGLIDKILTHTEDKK
#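 Purified B. subtilis ClpP, 10 microg/mL final in Tris/HCl pH8 with KCl, BSA, glycerol and Tween-20, cleaved an Abz/nitrotyrosine-quenched decapeptide. Fluorescence (ex 320, em 430) was read at 0 and 20 min at room temperature. Delta was normalized to 5.8 microM ADEP and DMSO/no-enzyme controls.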
# D2 ag: agonists of human D2 dopamine receptor (beta-arrestin); P14416; DiscoveRx PathHunter D2 beta-arrestin, luminescence, 90 min; 100% = 57 uM dopamine signal; activation, % (no concentration beside the values); 0.084% of 360,000 active; AID 624465; in the data active = activation above about 40%; inconclusive = about 15% to 40%; inactive = below about 15%; further: compound concentration not given in the record; the text of the record calls up to 30% inactive
# Target sequence (P14416 whole entry, looked up): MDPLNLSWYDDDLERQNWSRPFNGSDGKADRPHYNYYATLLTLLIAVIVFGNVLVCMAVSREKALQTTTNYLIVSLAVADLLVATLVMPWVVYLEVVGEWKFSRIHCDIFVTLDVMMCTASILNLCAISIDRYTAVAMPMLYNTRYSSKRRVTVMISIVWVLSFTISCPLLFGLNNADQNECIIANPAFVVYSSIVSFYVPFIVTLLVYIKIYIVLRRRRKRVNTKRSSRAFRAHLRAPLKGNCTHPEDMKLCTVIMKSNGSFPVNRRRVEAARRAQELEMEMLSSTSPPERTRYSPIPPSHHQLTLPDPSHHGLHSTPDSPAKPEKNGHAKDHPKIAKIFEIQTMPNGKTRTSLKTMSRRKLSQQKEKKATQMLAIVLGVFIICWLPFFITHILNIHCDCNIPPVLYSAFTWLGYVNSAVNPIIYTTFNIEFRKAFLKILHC
#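 DiscoveRx PathHunter D2 beta-arrestin cells (2,100/well) attached overnight, then compound-stimulated 90 min at 37 C in HBSS/10 mM HEPES/0.1% Tween-20 buffer; beta-galactosidase complementation read by luminescence after 1 h at ambient temperature. Dopamine 57 uM final (EC100) as control.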
# PINK1 expr mod: PINK1 expression modulation | 0.2% of 410,000 active | PINK1 immunofluorescence, high-content cytometry, 24 h | AID 624263 | Potency, µM (titrated, usually from 76.6 µM), without a hit: at the top dose activation (PINK1 increase), usual class: activators; active = well fitted activation curve with a large enough effect; inconclusive = small, poorly fitted or top-dose-only effect; inactive = flat fitted curve, though single readings scatter; cell line not stated here;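 further: potency means the concentration at half of the fitted maximal effect; % of control where 0% means no effect; nearly all actives have a fitted effect of over 65% in size; a mitochondrial uncoupler was the plate control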
#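 PINK1 protein, normally rapidly degraded, was detected by immunofluorescence after 24 hour compound treatment of a stable cell line. Titration data (5 concentrations) came from laser-scanning cytometry, with CCCP-treated wells as controls.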
# Sfp inh: Sfp phosphopantetheinyl transferase inhibition. AID 1490. Biochemical Sfp PPTase activity, qHTS. Potency, µM, inactives show max response, negative = inhibition, usual class: inhibitors. 3.5% of 310,000 active. Q9F4F7; active means well fitted inhibition curve with a large enough effect; inconclusive means small, poorly fitted or top-dose-only effect, or another doubt; inactive means no such curve, though single readings can be large or run the other way;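 further: the enzyme is Sfp with the accession as filed and its product quenches rhodamine fluorescence; potency means the concentration at half of the fitted maximal effect; 0% = enzyme reaction without inhibitor and -100% = no enzyme wells; top concentration of the series not given in the record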
#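 Fluorescence-quenching assay with 15 nM Sfp, 5 uM rhodamine-CoA and 12.5 uM BHQ-2-labelled ybbR peptide in pH 7.6 Hepes/MgCl2 buffer. Enzyme was pre-incubated with compound for 15 min at room temperature. Rate was taken from the 30-min fluorescence change (525/598 nm).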
# gsp agonist: gsp mutant agonism | gsp mutant cells, cAMP HTRF, 30 min; control for the full effect not named in the record | 0.13% of 340,000 active | Potency, µM (highest dose often 76.9 µM), without a hit: at the top dose activation (cAMP increase), most hits filed as activators; active = well fitted activation curve with a large enough effect; inconclusive = small, poorly fitted or top-dose-only effect, or another doubt; inactive = no such curve, though single readings can be large or run the other way; cell line not stated here;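 further: phosphodiesterase inhibitor Ro 20-1724 added with compounds to block cAMP breakdown; potency means the concentration at half of the fitted maximal effect; nearly all actives have a fitted effect of over 60% in size; about a fifth of the inactives were tested at one dose only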
#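 Cells in DMEM/10% FBS with G418 were pretreated with compounds in DMSO plus […] (300 uM stock) for 30 min at 37C. cAMP was measured by HTRF (cAMP-d2 plus anti-cAMP antibody-K) after 30 min at room temperature.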
# gsp antag: gsp mutant antagonism; AID 624288; 0.4% of 340,000 active; Potency, µM (series often up to 76.9 µM), inactives show at the highest dose activity change, negative = inhibition, most hits filed as inhibitors; gsp-mutant cells, cAMP HTRF, 30 min; control for the full effect not named in the record; active = falling curve of any shape with a large fitted effect; inconclusive = falling curve, mostly with a smaller effect; inactive = flat or rising curve; cell line not stated here;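 further: intracellular cAMP measured with PDE inhibitor Ro 20-1724 present during compound exposure; potency means the concentration at half of the fitted maximal effect; on the % scale 0 is the no-effect control and ±100 the full control effect; nearly all actives have a fitted effect of over 65% in size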
#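 Cells in G418 medium, seeded 16-24 h, 37C; buffer exchange to DPBS + 1 mM CaCl2, 0.5 mM MgCl2, 0.05% BSA; cpds in DMSO + […] (300 uM stock), 30 min 37C; HTRF cAMP detection.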
# Menin-MLL FL inh: menin-MLL binding inhibition, fluorescein peptide; Fluorescence polarization, fluorescein-MLL peptide displacement from menin; FP activity change, % at 61.4 µM; 290,000 tested, under 10 active; inconclusive = falling polarisation curve, or a change in total fluorescence; inactive = total fluorescence flat and polarisation flat or rising; no compound was filed as active; the % refers to the polarisation; negative = inhibition;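 further: % of control where 0% means no effect; inhibitors lower the polarisation; unlabelled MLL peptide was the positive control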
# Numbers without * were called inactive; ? = inconclusive; / = no result given; & = joins results of further samples; [ ] = dose if it differs, or a comment. Rows were taken by chance. About 5.1% of those tested had a hit in this group.
SMILES,ClpP mod,D2 ag,PINK1 expr mod,Sfp inh,gsp agonist,gsp antag,Menin-MLL FL inh
Nc1ccccc1C(=O)NCc1ccco1,/,6.7,0.2%,21%,-48%[inhibitor],2%,0.5
CCN(CC)CCNC(=O)C1CCC(=O)N(c2ccc(OC)cc2)C1c1ccc(F)cc1 (configuration not stated),-3.3%,-4.2,-1.5%,13%,14%,18%,1.8
O=C1CCCC2=C1C(c1ccc(O)c(O)c1)Nc1ccc3ccccc3c12 (configuration not stated),/,14,6.9%,/,5%,-1%,/
CCN1C(=NCc2cc(OC)c(OC)c(OC)c2)N[C@@H](c2cccc(C(F)(F)F)c2)C(C(=O)OC)=C1C,-6.5%,-3.7,1.7%,2%,?,-6%,6.7
COc1cccc(N2CCN(C(=O)CN(C)S(=O)(=O)c3ccc4c(c3)c(=O)n(C)c(=O)n4C)CC2)c1,/,-0.7,1.8%,11%,?,-20%,23
CCOC(=O)c1c(-c2ccc(C)cc2)csc1NC(=O)/C(C#N)=C/c1ccc(O)c(OC)c1,/,-3.3,0.3%,1%,3%[15.4 µM],-18%,?
O=C(OCC(=O)N1CCN(S(=O)(=O)c2ccc(Cl)cc2)CC1)c1cccc(OC(F)F)c1,?,-3.8,1.7%,/,-1%[15.4 µM],-1%,/
COc1ccccc1C(CNC(=O)c1ccc(NS(=O)(=O)c2ccc3c(c2)OCCO3)cc1)N(C)C (configuration not stated),0.2%,-3.7,-0.7%,/,9%,0%,/
O=C(Nc1cccc(Cl)c1)Nc1ccnc(-c2cccnc2)n1,/,5.1,1.7%,?,23%,13%,6.6
CCn1c(COc2ccc(=O)n(-c3ccccc3)n2)nnc1SCc1ccccc1C,1.5%,-2.8,-0.1%,10%,?,-2%,5.3
COc1cc(C(C)=O)ccc1COc1ccc(C(=O)O)cc1OC,/,-2.1,0.4%,-18%,-3%[15.4 µM],-9%,-1.0
Cc1ccccc1NC1=NC(=S)N(CC(N)=O)C12CCOC(C)(C)C2 (configuration not stated),/,-2.8,-1.8%,-11%,39%[15.4 µM],3%,9.4
O=C(c1cc2ccccc2oc1=O)N1CCSC1c1ccco1 (configuration not stated),-2.7%,-4.2,1.4%,-17%,0%,-7%,-2.4
COC(=O)c1ccsc1NC(=O)C1COc2ccccc2O1 (configuration not stated),-0.4%,-6.0,2.1%,-3%,-7%,-9%,0.1
C=CCn1c(SCC(=O)O)nnc1-c1cccs1,?,-0.4,/,12%,25%,-2%,1.3
CN(C)c1cc[n+](CC(=O)Nc2ccccc2C(F)(F)F)cc1,/,-0.8,1.4%,2%,-22%,12%,0.7
O=C1NC2(CCCc3ccccc32)C(=O)N1Cc1nnc(-c2ccccc2Br)o1 (configuration not stated),0.4%,-3.4,0.1%,-13%,0%,-29%,3.6
O=C(C1CC1)N1N=C(c2ccc(Br)cc2)CC1(O)C(F)(F)F (configuration not stated),-5.6%,-7.0,8.9%,-3%,?,-12%,1.2
COc1ccccc1-n1c(SC)nc2c(sc(=S)n2-c2ccccc2)c1=O,/,1.7,3.5%,17%,0%,6%,-3.6
O=C(NCCCNC(=O)c1ccccn1)c1ccc(Cl)cc1,/,-0.1,-2.5%,18%,?,6%,-0.3
O=C1CCCCN1CCC(=O)N1CCCC(N2CCN(c3cccc(Cl)c3)CC2)C1 (configuration not stated),-1.7%,0.0,5.9%,1%,1%,-9%,/
O=C(CC1SC(N2CCCCC2)=NC1=O)Nc1ccc(C(=O)Nc2ccccc2)cc1 (configuration not stated),-8.0%,-3.5,3.5%,/,?,-5%,/
C=CCN(CC=C)C(=O)c1ccc(OC2CCN(S(=O)(=O)N(C)C)CC2)cc1,0.6%,-0.5,-1.7%,3%,7%[15.4 µM],-20%,1.4
COc1ccc(Cc2nc3ccc(C(=O)NCC4CCOCC4)cc3o2)cc1OC,1.2%,-0.4,0.2%,12%,-4%,8%,/

# Ordered by SMILES length (ascending): some entries from above.
SMILES,ClpP mod,D2 ag,PINK1 expr mod,Sfp inh,gsp agonist,gsp antag,Menin-MLL FL inh
O=C(NCCCNC(=O)c1ccccn1)c1ccc(Cl)cc1,/,-0.1,-2.5%,18%,?,6%,-0.3
CN(C)c1cc[n+](CC(=O)Nc2ccccc2C(F)(F)F)cc1,/,-0.8,1.4%,2%,-22%,12%,0.7
C=CCN(CC=C)C(=O)c1ccc(OC2CCN(S(=O)(=O)N(C)C)CC2)cc1,0.6%,-0.5,-1.7%,3%,7%[15.4 µM],-20%,1.4

# (further entries)
SMILES,ClpP mod,D2 ag,PINK1 expr mod,Sfp inh,gsp agonist,gsp antag,Menin-MLL FL inh
CCOc1ccccc1C(=O)Nc1ccc(C(=O)c2ccccc2)cc1,-2.2%,-5.5,3.8%,-4%,-13%,25µM*,1.9
COc1ccccc1N(CC(=O)N/N=C(\C)c1ccccc1O)S(=O)(=O)c1ccc(C)cc1,/,1.7,2.5%,22%,?,-27%,-0.8
N#Cc1ccc(NC(=O)CN2CCN(c3ccccn3)CC2)cc1,-1.6%,48*,-0.3%,3%,-3%,17%,-4.6
CCCCN(CC)CCNC(=O)C1CCCN(S(=O)(=O)c2cccc3nsnc23)C1 (configuration not stated),0.1%,2.2,0.5%&1.2%,19%,10%,11%,0.2
CC(=O)Nc1ccc(N2C(=O)CSC2c2cccc([N+](=O)[O-])c2)cc1 (configuration not stated),/,-4.8,-0.4%,20%,-2%[15.4 µM],2%,0.2
CCNC(=O)C1(C)CCCN(Cc2csc(-c3ccccc3)n2)C1 (configuration not stated),-0.2%,1.1,-0.9%,/,/,/,/
Cc1ccccc1S(=O)(=O)N(C)C[C@@H]1OCc2cn(nn2)CCCC(=O)N([C@H](C)CO)C[C@H]1C,-0.1%,-0.6,-1.3%,/,-120%[inhibitor],/,/
O=C(COC(=O)c1ccc(CSc2ccc(Cl)cc2)cc1)Nc1ccccc1,-2.6%,-2.3,3.6%,3%,-33%[inhibitor],5%,9.8
CCOc1ccc(Br)cc1S(=O)(=O)N1CC(C)OC(C)C1 (configuration not stated),0.4%,-2.1,0.5%,2%,-33%,-7%,-1.6
Cn1c(/C=C/c2ccccc2[N+](=O)[O-])nc2ccccc2c1=O,/,-1.5,23%,16%,-19%,-2%,-11
CCOCC(=O)Nc1ccc([N+](=O)[O-])cc1Cl,/,-2.3,-2.3%,5%,27%,3%,1.7
Cc1ccc(C)c(NC(=S)NNC(=O)c2csc3c2CCCC3)c1,1.3%,-7.9,3.8%[38.3 µM],11%,6%,-22%,-0.5
CCn1c(SCC(=O)c2cc(C)n(-c3ccc(C(=O)OC)cc3)c2C)nnc1-c1cccnc1,0.2%,0.7,0.5%,2%,3%,-5%,0.3
COC(=O)c1ccccc1NC(=O)Cn1cnc2c1c(=O)n(C)c(=O)n2C,/,-6.0,7.3%,/,34%[15.4 µM],13%,/
C[C@@H]1NC(=O)c2cc([N+](=O)[O-])cc(I)c2NCCCC[C@@H](C(N)=O)NC(=O)[C@H](CCC(=O)O)NC1=O,0.9%,-1.2,0.3%,-11%,0%,12%,0.9
CN1C=CC(=O)[C@@H](O)[C@H]1c1ccccc1Br,-0.7%,-0.9,-1.1%,/,/,2%,/
COC(=O)CCCNS(=O)(=O)c1ccc2ccccc2c1,0.3%,-5.1,4.1%,19%,5%,0%,2.8
CCN(CC)C(=O)Cn1cc(SCC(=O)NC2CCCCC2)c2ccccc21,0.3%,?,0.9%,/,-22%,/,/
CC1CCCN(CCCNC(=O)c2ccc(N3CCCC3=O)cc2)C1 (configuration not stated),-1.6%,-0.6,-0.4%,8%,-28%,11%,/
Cc1ccn2c(=O)nc(SCC(=O)N3CCC(Cc4ccccc4)CC3)nc2c1,/,-4.7,0.8%,/,-10%[15.4 µM],-19%,/
CC1(C)Cc2cccc(OCC(=O)OCC(=O)Nc3ccccc3)c2O1,-2.0%,-0.9,-5.8%,/,13%,7%,/
CCOC(=O)CN(C#N)c1nc(C)cc(C)n1,-0.9%,0.3,-1.8%,11%,-5%,-3%,1.5
CC1=NNC(=O)C1CCC(=O)N/N=C(/C)c1ccc([N+](=O)[O-])cc1 (configuration not stated),/,-4.9,0.9%,-12%,-5%[15.4 µM],-3%,15
O=C1CCC(C(=O)N(Cc2cccs2)C2(C(=O)NC3CCCCC3)CCCCC2)N1 (configuration not stated),0.6%,1.7,-1.1%,7%,1%[15.4 µM],-6%,1.0
Cc1cccc(OCC(=O)NCCCNC(=O)c2cnccn2)c1,/,-6.3,-1.4%,14%,0%,6%,-4.1
C=CCc1cccc(/C=N/n2c(C)nnc2C)c1O,-4.3%,-1.5,3.8%,-4%,0%,4%,?
COc1ccc(CCNC(=O)CSc2nc(-c3ccc(OC)c(OC)c3)ccc2C#N)cc1,18µM*,0.5,3.1%,-19%,7%,-8%,9.9
O=C(CNCc1cccs1)NC12CC3CC(CC(C3)C1)C2,-1.6%,14,-0.3%,-10%,0%[15.4 µM],-4%,-8.4
CCOC(=O)c1ccc2[nH]c3c(c2c1)CCCCC3=O,-27%,1.6,-0.7%[38.3 µM],12%,15%,-3%,0.1
CC(C(=O)Nc1ccc(C#N)cc1)N(C)Cc1cccs1 (configuration not stated),/,1.7,9.6%,4%,16%[15.4 µM],-12%,0.6
CC(SCc1ccccc1)C(=O)Nc1ccc2c(c1)OCO2 (configuration not stated),-3.4%,2.3,-1.6%,-4%,-5%,-12%,-1.5
Cc1nc(SCC(=O)c2ccccc2)c([N+](=O)[O-])[nH]1,1.2%,-3.9,6.5%[38.3 µM],9%,-1%,-13%,0.5
COc1ccccc1NC(=O)N1CCCC1C(=O)NCC1CCCO1 (configuration not stated),0.2%,-0.4,1.4%,1%,-39%[inhibitor],9%,0.3
